Bioassay records: PubChem BioAssay, National Center for Advancing Translational Sciences (NCATS)
NS1 function inh: influenza NS1 inhibition; S. cerevisiae slowed by influenza A NS1, growth recovery by OD600; Potency, µM (series often up to 46.1 µM), for the others: top-dose activity, positive = more growth; 0.4% of 270,000 active; AID 2326; further: actives are rising curves; nearly all actives have a fitted effect of over 50% in size
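Read-out: OD600 growth recovery of NS1-expressing budding yeast. Cells grown overnight at 30C in -URA glucose medium, washed, resuspended and diluted 1:100 in 2% galactose assay medium, pH 6.0. Same strain lacking NS1 served as positive control.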
LASV entry inh: Lassa virus entry inhibition; 1.2% of 300,000 active; Lassa virus pseudotype entry inhibition, cell reporter; control for the full effect not named in the record; Potency, µM (highest dose often 37.9 µM), for inactives: top-dose activity change, negative = inhibition, usual class: inhibitors; active means well fitted inhibition curve with a large enough effect; inconclusive means small, poorly fitted or top-dose-only effect, or effect the other way; inactive means flat fitted curve, though single readings scatter; tested in HEK293 cells; further: on the % scale 0 is the no-effect control and ±100 the full control effect; nearly all actives have a fitted effect of over 50% in size; luciferase read-out
SARS PLpro yeast: blocks SARS-CoV papain-like protease in a yeast assay; Potency, µM (top dose mostly 32.9 µM), inactives show top-dose activity, positive = growth rescue; 0.19% of 330,000 active; S. cerevisiae expressing SARS-CoV PLpro, growth rescue; control for the full effect not named in the record; further: 0% is about no effect; nearly all actives have a fitted effect of over 55% in size; growth read by luminescence after 48 h
RE007 growth inh: less growth of the S. pombe RE007 Vpr strain; S. pombe RE007 Vpr strain, BacTiter-Glo ATP luminescence, 24 h; control for the full effect not named in the record; Potency, µM (series often up to 92.2 µM), without a hit: at the highest dose activity change, negative = less growth; 0.21% of 360,000 active; active = well fitted falling curve with a large enough effect; inconclusive = small, poorly fitted or top-dose-only effect; inactive = no such curve, though single readings can be large or run the other way;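 further: on the % scale 0 is the no-effect control and ±100 the full control effect; nearly all actives have a fitted effect of over 50% in size; the assay follows cell death caused by Vpr and the record does not say whether a fall means rescue or toxicity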
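Fission yeast RE007 carrying one integrated HIV-1 vpr copy, seeded at OD 0.01 in PMG+AL medium with 23 nL pinned compound. Grown 24 h at 30 degrees; viability read by BacTiter-Glo luminescence after 5 min.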
Cruzain inh Det: inhibitors of Trypanosoma cruzi cruzain with detergent; AID 1478; 0.43% of 200,000 active; P25779; purified cruzain, Z-FR-AMC fluorescence, 0.01% Triton; Potency, µM, without a hit: max response, negative = inhibition, most hits filed as inhibitors; active means well fitted curve in the direction sought with a large enough effect; inconclusive means small, poorly fitted or top-dose-only effect, or another doubt; inactive means no such curve, though single readings can be large; an effect the other way counts as inactive or inconclusive;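 further: plate controls were neutral wells for no effect and buffer without enzyme for full effect; nearly all actives have a fitted effect of over 40% in size; top concentration of the series not given in the record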
Target sequence (P25779 123-467 limits assumed): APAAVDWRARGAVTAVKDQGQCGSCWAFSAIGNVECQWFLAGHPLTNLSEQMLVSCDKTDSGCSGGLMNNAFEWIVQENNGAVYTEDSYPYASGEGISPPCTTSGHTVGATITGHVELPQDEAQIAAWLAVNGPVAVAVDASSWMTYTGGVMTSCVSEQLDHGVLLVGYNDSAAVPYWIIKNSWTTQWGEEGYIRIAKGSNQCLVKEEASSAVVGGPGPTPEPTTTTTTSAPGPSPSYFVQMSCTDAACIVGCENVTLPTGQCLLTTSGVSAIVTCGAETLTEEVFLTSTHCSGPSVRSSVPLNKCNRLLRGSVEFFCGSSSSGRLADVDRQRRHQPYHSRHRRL
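Detergent-containing run (0.01% Triton X-100) in acetate buffer pH 5.5 with 5 mM DTT: enzyme at 1.5 nM final, 15 min compound preincubation at room temperature, then 2 uM Z-FR-AMC substrate. Activity taken as 60 s fluorescence increase at 360/450 nm.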
Cruzain inh noDet: inhibitors of Trypanosoma cruzi cruzain without detergent; P25779; purified cruzain, Z-FR-AMC fluorescence, no detergent; Potency, µM, inactives show max response, negative = inhibition, actives largely listed as inhibitors; 2.3% of 200,000 active; AID 1476; active means well fitted curve in the direction sought with a large enough effect; inconclusive means small, poorly fitted or top-dose-only effect, or another doubt; inactive means no such curve, though single readings can be large; an effect the other way counts as inactive or inconclusive;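 further: plate controls were enzyme without inhibitor for no effect and buffer without enzyme for full effect; nearly all actives have a fitted effect of over 40% in size; top concentration of the series not given in the record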
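Purified cruzain at 1.5 nM, pre-incubated 15 min with compound at room temperature in 100 mM sodium acetate pH 5.5, 5 mM DTT, 0.00005% Triton X-100. Reaction started with 2 uM Z-FR-AMC; AMC fluorescence increase over 60 s gives rate.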
2A StopGo: lowers the luciferase signal of an FMDV 2A StopGo reporter; human cells with a luciferase reporter of 2A StopGo recoding; control for the full effect not named in the record; Potency, µM (top dose mostly 57.9 µM), inactives show top-dose signal change, negative = less light; 1.2% of 410,000 active; active = well fitted falling curve with a large enough effect; inconclusive = small, poorly fitted or top-dose-only effect; inactive = no such curve, though single readings can be large or run the other way; tested in HEK293T cells; further: on the % scale 0 is the no-effect control and ±100 the full control effect; nearly all actives have a fitted effect of over 45% in size; luciferase light after 4 h
Marburg entry inh: Marburg virus entry inhibition; Marburg virus pseudotyped entry inhibition, cell reporter; control for the full effect not named in the record; about a third of the inactives were read at about 46 µM; Potency, µM (doses to about 37.8 µM), inactives show top-dose activity change, negative = inhibition, hits mostly inhibitors; 1.8% of 300,000 active; AID 540276; active = well fitted inhibition curve with a large enough effect; inconclusive = small, poorly fitted or top-dose-only effect, or effect the other way; inactive = flat fitted curve, though single readings scatter; tested in HEK293 cells; about a fifth of its hits are not listed in these tables; further: on the % scale 0 is the no-effect control and ±100 the full control effect; luciferase read-out
* marks the source's active call; other numbers are inactive results; ? = inconclusive; nt = no result given; & = joins results of further samples; [ ] = dose if it differs, or a comment. Unless noted, the call rests on the fitted dose curve; in most records, active means well fitted rising curve with a large enough effect; inconclusive means small, poorly fitted or top-dose-only effect; inactive means no such curve, though single readings can be large or run the other way. Potency means the concentration at half of the fitted maximal effect.

SMILES	NS1 function inh	LASV entry inh	SARS PLpro yeast	RE007 growth inh	Cruzain inh Det	Cruzain inh noDet	2A StopGo	Marburg entry inh
CCCCn1c(N)c(N(CCC(C)C)C(=O)COC(=O)c2cccnc2SC)c(=O)[nH]c1=O	nt	?	-1%	-16%	nt	nt	-4%	25%
CCn1nc(C(C)C)cc1C(=O)N1CCCC(CO)(Cc2ccc(F)cc2F)C1 (stereo not drawn)	-23%	nt	0%	-6%	nt	nt	-21%	nt
O=C(CC1C(=O)NCCN1CCCc1ccccc1)NCCc1ccccc1Cl (stereo not drawn)	-9%	nt	2%	43%	nt	nt	-6%	nt
Cc1cc(=O)oc2cc(OCC(=O)NCCCN3CCCC3=O)c(Cl)cc12	-9%	nt	2%	-10%	nt	nt	-19%	nt
CCOC(=O)C(C)Sc1nc(-c2ccccc2Cl)cc(-c2ccccc2)c1C#N (stereo not drawn)	nt	18%[46.1 µM]	nt	nt	-1.3%	-11%	0%	nt
Cc1noc(C)c1S(=O)(=O)N1CCC(C(=O)NCCC2=CCCCC2)CC1	-10%	11%	0%	-3%	3.5%	-10%	0%	?
O=C(CSc1ncc(S(=O)(=O)c2ccc(Br)cc2)c(=O)[nH]1)NCc1ccccc1Cl	nt	23%[46.1 µM]	nt	nt	-12%	?	-16%	0%[46.1 µM]
C[C@H](NC(=O)[C@H]1N2C(=O)c3ccccc3C2SC1(C)C)C(=O)NCC1CCCO1 (stereo partly drawn)	-4%	nt	?	-10%	nt	nt	55%[activator]	nt
COc1ccccc1N1CCN(C(=O)c2c3c(nc4ccccc24)C(=O)N(C2CCCCC2)C3)CC1	nt	1%[46.1 µM]	nt	nt	-2.0%	-1%	?	nt
CCOc1ccc(CN2CCC(=O)NC2=O)cc1	14%	8%	-5%	8%	12%	-8%	-3%	7%
CN(C)CCCNCC(=O)Nc1ccccc1N1CCOCC1	-4%	0%	-15%	-1%	2.9%	7%	-18%	?
Cc1[nH]nc2c1C(Cc1ccccc1)C(C#N)=C(N)O2 (stereo not drawn)	0%	13%	-3%	5%	0.4%	-3%	4%	-43%
CN(CCN(C)C(C)(C)C)C(=O)C(c1ccccc1)c1ccccc1	3%	14%	0%	3%	nt	nt	-2%	-3%
CC1CCN(S(=O)(=O)c2cc(C(=O)NCc3ccccc3)n(C)c2)CC1	nt	3%[46.1 µM]	nt	nt	-4.9%	1%	-13%	nt
CCCCN(CC)S(=O)(=O)c1ccc(C(=O)Nc2nnc(-c3ccccc3Cl)o2)cc1	-22%	nt	-1%	nt	-3.4%	-17%	nt	2%
c1coc(Cn2nnnc2CN2CCN(C3CCCCC3)CC2)c1	5%	11%	8%	4%	1.0%	7%	8%	24%
O=C(NCc1ccccn1)Nc1ccccc1F	2%	nt	-4%	-6%	nt	nt	25%	nt
O=C(NCCN1C(=O)S/C(=C\c2ccc(F)cc2)C1=O)c1cccc(S(=O)(=O)N2CCOCC2)c1	13%	1%	-20%	-4%	-13%	?	-11%	-37%
O=C(c1ccc([N+](=O)[O-])cc1)N1CCc2ccccc21	nt	0%	nt	-2%	nt	nt	12%	27%
CCc1nnc(SCC(=O)N2CCCc3ccccc32)nc1CC	-13%	-17%	1%	0%	9.3%	-1%	-22%	1%
FC(F)(F)c1nc(-c2cccnc2)ncc1-c1nnnn1-c1ccccc1	-2%	-1%	-3%	5%	-0.9%	-7%	0%	1%
COc1c(Cl)cc(-c2noc(C)c2C(=O)NCc2ccccc2)cc1Cl	-6%	nt	16%	3%	0.5%	-6%	-16%	0%
COc1ccc(C(=O)Oc2ccc(/C=N/NC(=O)Cc3ccc([N+](=O)[O-])cc3)cc2)cc1	2%	-1%	3%	-8%	-1.9%	?	16%	20%
Cn1cccc1-c1cc(C(=O)N/N=C/c2ccc([N+](=O)[O-])cc2)[nH]n1	12%	-3%	3%	9%	nt	nt	-20%	1%[46.1 µM]
Cc1ncc([N+](=O)[O-])n1Cc1ccc(Cl)cc1	-3%	nt	7%	-8%	nt	nt	-20%	nt
CC(C)N1C(=O)N(c2cccc(Cl)c2)C(C)(O)CC1(C)C (stereo not drawn)	-2%	-3%[46.1 µM]	0%	3%	nt	nt	-1%	-3%[46.1 µM]
Cc1oc(C(=O)Nc2ccc(C(=O)O)cc2)cc1COc1ccccc1	-3%	24%	2%	-9%	-2.1%	0%	38%[activator]	-8%
N#Cc1ccc(Oc2ccc(S(=O)(=O)N3CCCCC3)cn2)cc1	nt	6%	3%	12%	nt	nt	?	-29%
CN1CCN(C(=O)CCN2C(=O)/C(=C/c3ccccc3Cl)SC2=S)CC1	4%	-30%[46.1 µM]	-1%	2%	nt	nt	-28%	?
O=[N+]([O-])c1nn(-c2ccccc2)[n+]([O-])c1N1CCN(c2ccccc2)CC1	1%	nt	0%	-2%	nt	nt	10%	-7%[46.1 µM]
COc1ccc(NC(=O)CCCC(=O)O)cc1Cl	7%	2%	2%	-5%	nt	nt	1%	?
Cc1cc(C)nc(Nc2ncc(O)n2-c2ccc(C)c(Cl)c2)n1	-4%	-11%	2%	?	0.1%	10%	0%	-29%[46.1 µM]
Cc1cccc(-n2c(C)nc3cc(C(=O)NCc4ccc5c(c4)OCO5)ccc32)c1	-15%	5%	-14%	15%	-5.5%	-12%	11%	1%
Cc1ccccc1NS(=O)(=O)c1ccc(OCC(=O)NCC2CCCO2)cc1 (stereo not drawn)	-1%	?	3%	0%	nt	nt	11%	10%
COc1ccc(CCN2C(=O)C3C4CC(C5C(C(=O)NN)=NOC45)C3C2=O)cc1OC (stereo not drawn)	10%	-8%	-4%	8%	2.1%	3%	-16%	?
COc1ccc(NC(=O)C2CCN(c3nc4ccccc4nc3C(F)(F)F)CC2)cc1	nt	20%[46.1 µM]	nt	nt	3.4%	4%	-17%	nt
CCOc1ccc(NC(=O)CSc2nnc(N)s2)c([N+](=O)[O-])c1	nt	-2%	0%	5%	nt	nt	0%	-4%[46.1 µM]
O=C(O)Cn1cnc2scc(-c3ccccc3)c2c1=O	20%	0%[46.1 µM]	-6%	15%	nt	nt	-2%	7%[46.1 µM]
Cc1occc1C(=O)Nc1ccc2c(c1)OCO2	-11%	?	-3%	-7%	1.6%	-7%	47%[activator]	-1%
O=C(O)/C=C/C(=O)NCC1CCC(CNC(=O)/C=C/C(=O)O)CC1 (stereo not drawn)	12%	5%[46.1 µM]	2%	-2%	nt	nt	0%	12%[46.1 µM]
S=c1[nH]nc(-c2cccnc2)o1	4%	2%	4%	2%	0.2%	-2%	-17%	9%
Cc1ccc(S(=O)(=O)Nc2ccc(NC(=O)c3cccs3)cc2)cc1	-4%	nt	0%	-15%	nt	nt	66%[activator]	nt
COCCNC(=O)C1CCC(Cn2c(=S)[nH]c3ccccc3c2=O)CC1 (stereo not drawn)	-13%	29%	-1%	15%	3.1%	-12%	16%	12%
CC(=O)c1cccc(NC(=O)N2CCCC2C(=O)Nc2c(C)cccc2C)c1 (stereo not drawn)	-2%	25%	-4%	23%	1.5%	4%	5%	7%
OC(CNCCC1C=Nc2ccccc21)Cn1c2ccc(Cl)cc2c2cc(Cl)ccc21 (stereo not drawn)	?	?	-41%	4%	-16%	6.3µM*	0%	?
O=C(OCC(=O)N1CCN(c2ccccc2)CC1)c1ccccn1	6%	3%	4%	9%	4.7%	4%	0%	14%
O=C(c1ccccc1)N1CCN(Cc2c[nH]c3ccccc23)CC1	3%	?	8%	2%	-2.9%	-4%	-10%	?
Cc1ccc(C)c(C(=O)CCC(=O)N2CCN(c3ncccn3)CC2)c1	-3%	15%[46.1 µM]	-1%	12%	nt	nt	10%	?
CC(=O)Nc1ccc(NC(=O)CCc2nc3cccnc3n2Cc2cccs2)cc1	nt	14%[46.1 µM]	nt	nt	5.3%	14%	-9%	-14%[46.1 µM]
CNC(=S)N(CCc1cccc(C)c1)Cc1cc2cc(OC)c(OC)cc2[nH]c1=O	?	0%	-5%	nt	-9.5%	?	-22%	?
COc1ccccc1NC(=O)C(C)OC(=O)C1CCC(C(C)(C)C)CC1 (stereo not drawn)	nt	?	-13%	1%	nt	nt	?	?
CCOC(=O)c1ccc(NC(=O)CC(=O)Nc2ccc3nc4n(c(=O)c3c2)CCCCC4)cc1	nt	0%[46.1 µM]	nt	nt	-1.7%	?	10%	1%[46.1 µM]
OCCN1CCN(C(c2ccccc2Cl)c2sc3nc(-c4ccco4)nn3c2O)CC1 (stereo not drawn)	nt	16%[46.1 µM]	nt	nt	-1.9%	-13%	5%	nt
C=CCn1c(CCCNC(=O)C(C)(C)C)nc2ccccc21	-5%	nt	8%	-1%	-0.6%	-11%	-12%	nt
COc1ccc(S(=O)(=O)Cc2ccc(C(=O)NC3CCCC3)o2)cc1	6%	nt	2%	-13%	2.5%	-12%	-29%	nt
COc1ccc(N(CC(=O)NC2CCCC2)C(=O)Cn2nnc(-c3ccc(F)cc3)n2)cc1OC	-12%	7%	?	1%	4.5%	?	18%	0%&19%
CCOc1ccc(CCNC(=O)CCCN2C(=O)c3ccccc3C2=O)cc1OCC	-8%	0%	-3%	-17%	3.6%	14%	-6%	4%
O=C(O)C1CSCN1S(=O)(=O)c1cccc2nsnc12 (stereo not drawn)	0%	2%	0%	1%	0.7%	-14%	?	-1%
CC(C)(C)CC(C)(C)NC(=O)c1ccc2snnc2c1	-44%	-23%	-2%	-14%	nt	nt	-26%	-5%
COC(=O)c1[nH]c2ccc(Cl)cc2c1NC(=O)Oc1ccccc1	-54%	?	-8%	-20%	-13%	-1%	30%	-1%

Additional results.
SMILES	NS1 function inh	LASV entry inh	SARS PLpro yeast	RE007 growth inh	Cruzain inh Det	Cruzain inh noDet	2A StopGo	Marburg entry inh
COc1ccc(C(=O)NC2CC(C)(C)Cc3c2cnn3-c2ccccc2)cc1OC (stereo not drawn)	-20%	-14%[46.1 µM]	-1%	-1%	nt	nt	-11%	?
CCC(C)[C@H](NC(=O)N1CC(=O)Nc2ccccc21)C(=O)N1CCC[C@H]1C(=O)O (stereo partly drawn)	7%	nt	9%	7%	nt	nt	-14%	nt
Cc1nn(C)cc1C(C)NC(=O)c1cc(COc2cccc3cnccc23)on1 (stereo not drawn)	0%	-26%	5%	-8%	nt	nt	20µM*	?
O=C(O)c1ccc2c(c1)-c1cc(C(=O)O)ccc1S2(=O)=O	-5%	nt	3%	4%	nt	nt	-14%	nt
